Sa growth 42C = S. aureus growth inhibition at 42 and 30 °C, primary screen, LtaS inhibitor project, RN4220, two temperatures. 170,000 compounds, 0.53% hits. OD600, 20 h, 42 °C; active compounds read low. relative growth, % (test concentration not listed);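 active means growth at 42 °C up to 50% and 20 or more points under that at 30 °C, or under 10% at both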;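 further: 300 nL library stock went into each well; scaled to the means of positive and negative controls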
GIV Gai3 FP = inhibitors of GIV peptide binding to Galpha-i3, primary screen, biochemical, fluorescence polarization, FITC-GIV GBA peptide, rat Galphai3 | percent of control (FP), % (test concentration not listed) | 90 min; active compounds read low; scaled: aluminum fluoride 0%, vehicle 100% | AID 1224905, 2016 | Guanine nucleotide-binding protein G(i) subunit alpha-3 (Rattus norvegicus), P08753 | 210,000 compounds, 0.42% hits;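 active means replicate mean at 85% of control or lower, very high polarization wells dropped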;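 further: lower values mean more displacement of the GIV peptide from Galpha-i3; wells of about 15 µL received 100 nL stock; the first replicate is given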
Target sequence (P08753 whole entry, looked up): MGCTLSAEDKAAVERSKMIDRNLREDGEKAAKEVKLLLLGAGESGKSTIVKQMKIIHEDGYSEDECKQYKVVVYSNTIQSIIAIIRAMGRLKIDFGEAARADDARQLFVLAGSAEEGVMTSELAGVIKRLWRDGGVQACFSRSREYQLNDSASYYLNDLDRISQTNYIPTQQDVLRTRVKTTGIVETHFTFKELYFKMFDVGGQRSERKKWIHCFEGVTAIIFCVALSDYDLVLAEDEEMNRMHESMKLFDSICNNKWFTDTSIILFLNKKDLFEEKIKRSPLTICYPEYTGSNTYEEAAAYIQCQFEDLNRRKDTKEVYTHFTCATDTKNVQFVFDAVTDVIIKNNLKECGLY
HCMV UL50-53 inh = inhibitors of HCMV UL50-UL53 interaction, biochemical, HTRF | inhibition, % (no concentration beside the values) | AID 1918969, 2023 | 190,000 compounds, 0.15% hits | normalized percent inhibition | HCMV UL50-UL53 nuclear egress complex (human cytomegalovirus);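 active means both replicates at 50% or more, plus weaker picks with an unusually low signal ratio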;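 further: stock transfer was 100 nL into about 20 µL; 0% = negative control wells and 100% = wells with untagged competitor protein; inactives centre near -12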
Sa growth 42C second temp = also measured in Sa growth 42C; calls as there; relative growth, %; measured here: growth at 30 °C;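 optical density after 20 h as mean of two plates; 100% = untreated growth and lower means inhibition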
* hit, by the source's call; / = no result given; & = joins results of further samples.

SMILES	Sa growth 42C	Sa growth 42C second temp	GIV Gai3 FP	HCMV UL50-53 inh
CCOc1ccc(N2CCCCn3c2nc2c3c(=O)n(CCC(C)C)c(=O)n2C)cc1	/	/	97	-7
O=C(NCc1ccccc1Cl)C1CCCN(c2nc3ccccc3n3cccc23)C1 (stereo not given)	117	91	100	-5
COc1ccc(N2CCN(S(=O)(=O)c3ccc(OC)c(-c4noc(C)n4)c3)CC2)cc1	104	95	101	4
CCOC(=O)c1c(NC(=O)CCc2ccccc2)sc(C(=O)Nc2cccc(Cl)c2C)c1C	/	/	101	-1
CCOc1cc(-c2noc(N)c2C(=O)OC)cc(OCC)c1OCC	89	99	108	11
CCCCNC(=O)C1CC(=O)N(c2ccc(Cl)cc2)C1 (stereo not given)	110	98	105	-14
COc1ccc2c(c1)c(=O)c(C(=O)c1ccccc1)cn2CC(=O)Nc1ccc2c(c1)OCO2	101	84	101	-35
CCC(Sc1nncn2c1cc1sccc12)C(=O)Nc1ccccc1C (stereo not given)	97	87	101	/
CN(C)c1ccc(C2Nc3ccc4ncccc4c3C3=C2C(=O)CCC3)cc1 (stereo not given)	88	81	101	-21
CCC(Sc1nnc2c(n1)[nH]c1ccccc12)C(=O)Nc1ccc(S(N)(=O)=O)cc1 (stereo not given)	95	85	99	-42
CN1CCN(CCNC(=O)c2cnc3sc4c(n3c2=O)CCC4)CC1	/	/	106	-7
COc1cc(CN2CCC(N3CCN(C)CC3)CC2)cc(OC)c1OC	100	87	108	-22
COc1cccc(NC(=O)c2cn(-c3ccc(-c4noc(C)n4)cc3)nc2C)c1	/	/	106	-5
Cc1nnc(Nc2ccc3c(c2)nc2n3CCN(C3CCCCC3)C2)c2ccccc12	91	93	109	-18
CCc1cc2c(cc3c(=O)n(CCCC(=O)NCc4ccccc4)ncn32)s1	97	82	105	-6
COC(=O)c1cc(S(=O)(=O)NCC2CCN(Cc3cccc(F)c3)CC2)c[nH]1	111	91	107	/
COc1ccc(C2=C(C)C(N3CCC(C(=O)NCc4ccc5c(c4)OCO5)CC3)=NS2(=O)=O)cc1	/	/	97	-7
O=C1c2ccccc2C(=O)N1c1cccnc1	104	88	109&100	-5&-86
Cc1ccc(NC(=O)CC2(c3ccc(Br)cc3)C(=O)c3ccccc3C2=O)cc1	99	83	96	/
CCOc1ccccc1NC(=O)CCS(=O)(=O)c1ccc(OC)cc1	94	81	104	/
NC(=O)c1cc(S(=O)(=O)N2CCOCC2)ccc1F	107	90	103	/
CCc1ccc(NC(=O)c2cnc3sccn3c2=O)cc1	93	87	103	/
Cc1ccc(CN2CCNC(=O)C2CC(=O)O)cc1 (stereo not given)	/	/	105	-7
CC(C)C(=O)NCc1nc(-c2ccccc2)no1	107	93	107	-4

Part of the list above, limited to GIV Gai3 FP and HCMV UL50-53 inh.
SMILES,GIV Gai3 FP,HCMV UL50-53 inh
CCc1cc2c(cc3c(=O)n(CCCC(=O)NCc4ccccc4)ncn32)s1,105,-6
COC(=O)c1cc(S(=O)(=O)NCC2CCN(Cc3cccc(F)c3)CC2)c[nH]1,107,/
COc1ccc(C2=C(C)C(N3CCC(C(=O)NCc4ccc5c(c4)OCO5)CC3)=NS2(=O)=O)cc1,97,-7

Next section.
SMILES	Sa growth 42C	Sa growth 42C second temp	GIV Gai3 FP	HCMV UL50-53 inh
COCCNC(=O)N(C)CCc1noc(C2CCCCC2)n1	/	/	110	-28
CCN(CC)S(=O)(=O)c1cc(C(=O)N2CCN(Cc3ccc4c(c3)OCO4)CC2)ccc1Cl	94	90	/	-15
O=C(O)CCC(=O)NCc1ccco1	94	90	100	-12
S=c1ccc(-c2ccc(Cl)cc2)nn1-c1ccccc1	90	64	101	/
O=C1Nc2ccccc2S/C1=C\c1ccc2c(c1)OCO2	93	67	103	0
O=C(CCNc1ccccc1C(=O)O)c1ccccc1	107	95	102	-11
O=C(Cn1ncn2cccc2c1=O)N1CCc2ccccc2C1	107	85	105	2
O=C(O)c1ccc(CNCc2ccccc2)s1	77	86	99	/
COC(=O)C1=C(C)NC2=C(C(=O)CC(c3ccc(OC)c(OC)c3)C2)C1c1cc(OC)c(OC)cc1OC (stereo not given)	/	/	104	-53
Nc1cc(-c2cccs2)nn1-c1ccc(F)cc1	106	107	99	4
COc1ccc(CNC(=O)C2=C(C)C(=O)OC23CCCCC3)cc1OC	97	97	99	/
COc1ccc(/C=C/C(=O)N2CC(=O)Nc3ccccc32)cc1S(=O)(=O)N1CCOCC1	98	104	/	-35
C/C(N)=C(/C#N)C(=O)CSc1n[nH]c(N)n1	74	91	/	0
CCN(CC)S(=O)(=O)c1ccc2c(c1)nc(CCC(=O)Nc1ccc(C(C)C)cc1)n2CC	110	97	/	-30
CCOc1ccc(N=C2SCCCN2C(=O)c2ccc(C#N)cc2)cc1	99	89	/	-22
Cn1cc(/C(Cc2ccccc2)=N\O)c2ccccc21	108	102	/	1
CP(=O)(O)C(c1ccccc1)C(F)(F)C(F)(F)C(F)(F)F (stereo not given)	90	80	99	-12
COc1cccc(N2CCN(C(=O)CCn3cnc4cc(S(=O)(=O)N5CCCC5)ccc43)CC2)c1	/	/	110	-20
Cc1c(S(=O)(=O)NCCc2ccccn2)sc2ccc(Cl)cc12	103	86	103	0
O=C(C1CC2CCCN2C12C(=O)Nc1ccccc12)N1CCN(c2ccccc2)CC1 (stereo not given)	90	100	102	-21
COc1ccc(C2Nc3ccccc3C(=O)N2c2ccccc2)cc1 (stereo not given)	106	82	107	/
C=CCSc1n[nH]c(=O)[nH]c1=O	74	92	100	/
Cc1ccc(NC(=O)C2CCCN(C(=O)c3cnn(-c4ccccc4)c3-n3cccc3)C2)cc1 (stereo not given)	97	83	98	-23
O=C(NC1CC1)c1cncc(NS(=O)(=O)c2ccc(F)cc2)c1	/	/	102	-18
Cc1ccccc1OCC(O)Cn1c(N2CCN(C)CC2)nc2c1c(=O)n(C)c(=O)n2C (stereo not given)	/	/	104	10
Cc1[nH]nc2c1C(c1ccccc1F)N(C)C2=O (stereo not given)	92	89	104	/
CCN1C(N)=C(C#N)C(c2ccc3[nH]c4ccccc4c3c2)c2nc(C)oc21 (stereo not given)	110	70	109	-12
CC(C)OC(=O)c1cccc(C(=O)Oc2ccccc2)n1	96	89	102	22
Fc1ccc(-c2csc(-c3cccs3)n2)cc1	45*	69*	100	-17
Cc1cc(I)ccc1NC(=O)CC(C)C	112	104	105	7
COc1ccc(/C=C/C(=O)C(C(N)=O)=C2SCS2)cc1	121	86	/	-10
O=C(NCc1ccc(F)cc1)c1n[nH]nc1Nc1cccc(F)c1	/	/	110	-26
COc1ccc(NC(=O)C(C)NC(=O)c2ccccc2NC(=O)c2ccco2)cc1 (stereo not given)	93	71	/	-18
CC1(C)CN(c2ccc(Br)cc2Br)C1=O	/	/	102	4
Cc1c(C2CCN(S(=O)(=O)c3cnc[nH]3)CC2)c2ccccc2n1Cc1ccc(Cl)cc1	/	/	103	-22
CCc1ccc(S(=O)(=O)c2nnn3c2nc(Nc2ccc(NC(C)=O)cc2)c2sccc23)cc1	101	88	103	/
COc1ccc(-c2c(C(F)(F)F)oc3cc(OC(=O)c4cccnc4)ccc3c2=O)cc1OC	/	/	100	-7
O=C(NCc1ccc(Cl)cc1)c1cnc(N2CCCC2)nc1	/	/	103	-22
O=C(/C=C/c1cccs1)N1CCCN(C(=O)/C=C/c2cccs2)CC1	110	89	108	-60
CN(C)C(=O)c1ccc2c(c1)N(CC(=O)N1CCCCC1)C(=O)C1CCCCN21 (stereo not given)	/	/	103	-33
COc1cccc(C(=O)OCC(=O)c2ccccc2)c1OC	89	84	99	-39
COc1ccc(OCc2nnc3sc(-c4cc5ccccc5o4)nn23)cc1	/	/	109	-18
O=C(Nc1ccccc1Br)C1CCN(c2cnc3ccccc3n2)CC1	/	/	95	-12
C=C(C)C1Cc2nc(N)nc(C)c2C1 (stereo not given)	101	94	106	/
CCCN1CCN(CC2=C(C(=O)OCC)C(c3cccc(OC)c3OC)NC(=O)N2)CC1 (stereo not given)	111	92	102	-44
CN1C(=O)C(=Cc2ccc(-c3cccc(C(=O)O)c3)o2)C(=O)N(C)C1=S	85	30	92	-11
Cc1noc2nc(C)n(CC(=O)NCCCN3CCOCC3)c(=O)c12	/	/	103	-6
Cc1ccc(C(=O)Nc2ccc3c(c2)n(C)c(=O)n3C)cc1	108	95	99	-6
COc1ccc(CNC(=O)CC(c2ccc(OC)c(OC)c2)N2Cc3ccccc3C2=O)cc1 (stereo not given)	94	79	97	/
O=C1CCCN1CCCn1c(-c2ccco2)csc1=Nc1ccc(F)cc1	100	87	/	-27
Cc1cc(C)cc(NC(=O)CSc2nc3c(c(=O)[nH]2)CN(Cc2ccc(F)cc2)CC3)c1	105	94	102	-23
CCOC(=O)c1cnc2ccc(OCC)cc2c1Nc1cc(Cl)c(OC)cc1OC	95	89	100	5
COC(=O)c1c(NC(=O)C2=Cc3ccc(C)cc3OC=C2)sc2c1CCC(C)C2 (stereo not given)	/	/	99	8
Cc1cc(/C=N/NC(=O)c2cccnc2)c(C)n1CC(C)C	110	93	/	-28
CC(C#N)(c1ccccc1)c1ccccc1	88	94	/	-5
O=C(Nc1ccc(N2CCN(c3ccc(F)cc3)CC2)c(C(=O)O)c1)c1ccccc1F	119	87	96	/
COc1ccc(NC(=S)N2CCC(N(C)CCN3CCOCC3)CC2)cc1Cl	97	90	105	-18
COc1ccc(Cn2c(C)c(C3=CCN(S(=O)(=O)c4c(C)nn(C)c4C)CC3)c3ccccc32)cc1	/	/	116	-13
Cc1ccc(S(=O)(=O)N2CCC(=O)c3ccccc32)cc1	87	92	/	-3
Cc1ccc(-c2noc(-c3ccc[nH]c3=O)n2)cc1	/	/	98	-71
Other entries.
SMILES	Sa growth 42C	Sa growth 42C second temp	GIV Gai3 FP	HCMV UL50-53 inh
Cc1cccc(NC(=O)c2sc3nc4n(c(=O)c3c2C)CCCCC4)n1	/	/	107	-9
CCC1CN(C(=O)NCc2ccccc2)c2cc(Cl)ccc2O1 (stereo not given)	98	106	105	6
CCN(CC)CCOC(=O)c1ccc(NC(=O)CCN2C(=O)S/C(=C/c3ccc(Cl)cc3)C2=O)cc1	/	/	99	-25
COc1ccc2ccc(O)c(CN3CCN(C(=O)C4CC4)CC3)c2c1	66	91	/	-24
CCn1cc(C(=O)N2CCCCC2)c(=O)c2cc(S(=O)(=O)N3CCCC3)ccc21	92	96	105	/
CCCCc1ccc(NCc2nc(-c3ccc(C)cc3)no2)cc1	86	96	109	/
COc1cc(-c2nc3ncccn3c2Nc2ccc3c(c2)OCO3)ccc1O	102	81	100	-18
CCC1CCCCN1C(=O)CN1C(=O)c2ccccc2S1(=O)=O (stereo not given)	99	94	102	-1
COCc1cc(C)nc2sc3c(=O)n(-c4ccc(C)cc4)nnc3c12	/	/	109	-20
C=CCOc1cccc(C(=O)NCCOC)c1	110	96	106	-28
Cc1cc(OCCN2CCOCC2)ccc1C(C)C	107	87	106	7
C=CCN1C(=O)/C(=C/C=C/c2ccccc2)S/C1=N\c1nnc(CC)s1	/	/	109	12

Entries listed so far with a CF3 group, in the order listed:
SMILES	Sa growth 42C	Sa growth 42C second temp	GIV Gai3 FP	HCMV UL50-53 inh
CP(=O)(O)C(c1ccccc1)C(F)(F)C(F)(F)C(F)(F)F (stereo not given)	90	80	99	-12
COc1ccc(-c2c(C(F)(F)F)oc3cc(OC(=O)c4cccnc4)ccc3c2=O)cc1OC	/	/	100	-7

(cont.)
SMILES	Sa growth 42C	Sa growth 42C second temp	GIV Gai3 FP	HCMV UL50-53 inh
CCSC(=N)N	/	/	97	-3&-15&-15&-14
Cc1cc(C)cc(C(=O)OCC(=O)c2cc3c4c(c2)CC(=O)N4CCC3)c1	64	89	/	-19
CCc1c(C)nc2ncnn2c1Sc1ccccc1NC(=O)C(C)C	/	/	100	-6
CCN(C(=O)CSc1nnnn1-c1ccccc1)C1CCS(=O)(=O)C1 (stereo not given)	93	91	/	-22
CCn1c(Oc2ccc(F)cc2F)nc2c1c(=O)n(C)c(=O)n2C	95	91	110	-18
Cc1ccc(C(=O)NN2CCc3cc4ccc(C)cc4nc32)cc1	112	92	107	-22
Cc1cccc(-c2nc3nc(CN(CCO)Cc4ccccc4)cc(=O)n3[nH]2)c1	/	/	98	-18
COc1ccc(C(=O)Nc2nnc(CCS(=O)(=O)c3ccc4ccccc4c3)s2)cc1OC	/	/	105	-11
COc1ccc(NC(=O)CSc2nnc3c4cc(-c5ccccc5)nn4ccn23)cc1	/	/	111	-20
COc1ccc(Cl)cc1NC(=O)c1c(NCc2sccc2C)sc2c1CCCC2	83	90	106	/
COc1cccc(N2CCc3c(C)nc4ccc(Cl)cc4c32)c1	65	48	108	-104
O=C(Cn1c2ncccc2c(=O)n1-c1ccccc1)NCc1ccc(Cl)cc1	/	/	104	-5
OCCSc1nnc(CCSCc2ccccc2)n1-c1ccccc1	/	/	100	-33
CCCCC1CCC(C(=O)Oc2ccc(OCC)cc2)CC1 (stereo not given)	107	96	99	/
O=C(c1ncoc1-c1cccs1)N1CCN(Cc2cccc3ccccc23)CC1	88	67	96	-6

Structures above that have bromine, in the order listed:
SMILES	Sa growth 42C	Sa growth 42C second temp	GIV Gai3 FP	HCMV UL50-53 inh
Cc1ccc(NC(=O)CC2(c3ccc(Br)cc3)C(=O)c3ccccc3C2=O)cc1	99	83	96	/
CC1(C)CN(c2ccc(Br)cc2Br)C1=O	/	/	102	4
O=C(Nc1ccccc1Br)C1CCN(c2cnc3ccccc3n2)CC1	/	/	95	-12

Bioassay records deposited in PubChem by ICCB-Longwood Screening Facility, Harvard Medical School.
